High-throughput results: PubChem, several laboratories
AF4-AF9 inh: MLL-AF4/AF9 protein interaction inhibition; AlphaScreen, biotin-AF4 peptide binding to FLAG-AF9; P42568; 0.47% of 350,000 active; inhibition, % at 10 µM;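 active = every replicate reaching a set inhibition limit, whatever the replicate mean, cut at about 25% in these data; inconclusive = mean inhibition reaches that limit but some replicates miss it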;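 also: 0% = plate neutral control median and 100% = total signal loss; the record names both 10 and 1 µM as test concentration; the first replicate is given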
UCH37 inh: inhibitors of human deubiquitinating enzyme UCH37. inhibition, % (test concentration not listed). 0.33% of 330,000 active. purified proteasome/UCH37, Ub-AMC cleavage fluorescence;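 active = mean of two replicates above 20%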;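 also: 0% = compound-free wells with enzyme and 100% = wells lacking proteasome; stock transfer was 100 nL into about 20 µL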
Target sequence (Q9Y5K5 whole entry, looked up): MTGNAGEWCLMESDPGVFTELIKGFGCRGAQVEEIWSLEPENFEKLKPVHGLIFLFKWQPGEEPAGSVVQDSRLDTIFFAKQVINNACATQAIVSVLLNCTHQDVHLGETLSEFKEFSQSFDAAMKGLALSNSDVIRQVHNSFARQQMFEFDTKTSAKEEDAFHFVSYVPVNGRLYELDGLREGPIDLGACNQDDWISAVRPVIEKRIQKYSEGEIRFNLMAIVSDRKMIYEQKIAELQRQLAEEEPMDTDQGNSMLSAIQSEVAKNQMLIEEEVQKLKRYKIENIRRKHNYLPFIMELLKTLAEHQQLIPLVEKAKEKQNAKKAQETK
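Material: human UCH37 enzyme supplied as purified proteasome complex. Measure: % inhibition of Ub-AMC cleavage fluorescence. Medium: pH 7.4 Tris-HCl (50 mM) with ovalbumin, ATP-MgCl2, DTT. Times: 30 min preincubation with enzyme, 25 min cleavage at room temperature. Detection: AMC fluorescence intensity at 355/460 nm.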
Ecoli growth: inhibitors of Escherichia coli growth. OD600, 23 h; hits give low values. OD600 absorbance (test concentration not listed). 0.21% of 330,000 active. AID 1053175;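 active = OD600 absorbance below the run mean of sample wells minus 3.6 SD, in any replicate, cut at about 0.56 in these data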;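 also: stock transfer was 300 nL into about 60 µL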
Vif TR-FRET: HIV-1 Vif–A3G interaction blockers – biochemical, TR-FRET, GST-Vif 1-94, biotin-A3G peptide, dose response retest, primary screen (AID 1117319). inhibition, %, or IC50 in µM where a hit was titrated. 0.57% of 260,000 active. TR-FRET GST-Vif / biotin-A3G peptide binding; higher % means a stronger effect; test concentration not given here; strong numbers were not always called active;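 active = above the screen mean plus three standard deviations and confirmed in dose response; inconclusive = results disagree or hit not tested in dose response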;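 also: Vif residues 1-94 fused to GST binding biotinylated APOBEC3G peptide 110-148; 0% = full assay without inhibitor and 100% = GST in place of GST-Vif; retest series ran down from 100 µM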
RanGTP-Impb inh: disruptors of Ran-importin-beta complex formation – biochemical, FRET, CFP-Ran, YFP-importin-beta, homogeneous, primary screen; cell-free CFP-Ran/YFP-importin-beta FRET ratio; inhibition, % (concentration not given with the values); 1.1% of 300,000 active;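 active = most replicates above 15%; inconclusive = exactly half above 15%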;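 also: 0% = DMSO wells and 100% = Ran loaded with GDP instead of GTP; wells of about 40 µL received 100 nL stock; the first replicate is given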
FGF22 binding: FGF22 (human) thermal shift binding | Q9HCT0 | recombinant FGF22 thermal shift, SYPRO orange fluorescence; percent of sucrose octasulfate shift, DMSO zero | calls only at 9.99 µM | 1.5% of 340,000 active;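 active = melting point raised past a set limit in the mean and every replicate; inconclusive = no clear call; three in four hits are not shown here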
Target sequence (Q9HCT0 whole entry, looked up): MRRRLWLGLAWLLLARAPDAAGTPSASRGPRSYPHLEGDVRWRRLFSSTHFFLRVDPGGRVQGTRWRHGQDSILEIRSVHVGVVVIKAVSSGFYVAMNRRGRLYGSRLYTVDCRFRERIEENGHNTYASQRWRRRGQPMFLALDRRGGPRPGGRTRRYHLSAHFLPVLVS
HNF4A DNA FP: change in binding of human HNF4 alpha to DNA | 0.3% of 360,000 active | HNF4a-FITC DNA binding, fluorescence polarization, 1 h | activity change, % at 10 µM | P41235; in the data active = activity change above about 30%, passing the limit was not always enough;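 also: controls were the assay level and a saturating level of protein; the project sought stronger binding though the title names inhibitors; some compounds called inactive have numbers as strong as hits; positive values seem to mean higher polarization but the record does not say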
Target sequence (P41235 whole entry, looked up): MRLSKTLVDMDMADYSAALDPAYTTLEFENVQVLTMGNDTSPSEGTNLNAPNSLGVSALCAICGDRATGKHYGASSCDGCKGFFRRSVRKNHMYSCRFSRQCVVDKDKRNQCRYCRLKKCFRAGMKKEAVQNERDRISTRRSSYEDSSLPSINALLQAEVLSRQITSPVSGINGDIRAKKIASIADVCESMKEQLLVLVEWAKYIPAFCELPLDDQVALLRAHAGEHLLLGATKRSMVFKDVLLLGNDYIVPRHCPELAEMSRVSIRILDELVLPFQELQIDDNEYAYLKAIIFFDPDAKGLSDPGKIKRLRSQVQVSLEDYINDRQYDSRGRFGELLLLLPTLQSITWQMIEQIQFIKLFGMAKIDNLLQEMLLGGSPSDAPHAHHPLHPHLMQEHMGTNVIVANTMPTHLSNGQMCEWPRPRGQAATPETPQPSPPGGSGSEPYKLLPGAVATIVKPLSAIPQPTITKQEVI
* marks the source's active call; other numbers are inactive results; i = inactive; ? = inconclusive; nt = not tested or not shown; + = active, no number; & = joins results of further samples. The list is partial; the hit share may differ from the screen's.

SMILES	AF4-AF9 inh	UCH37 inh	Ecoli growth	Vif TR-FRET	RanGTP-Impb inh	FGF22 binding	HNF4A DNA FP
CCOC(=O)C1CCN(c2c(NCCCN(C)C3CCCCC3)c(=O)c2=O)CC1	-3.2	5.5	0.715	?	1.9	i	-2.1
O=S(=O)(c1cccs1)N1CCN(c2cccc(Cl)c2)CC1	0.5	1.9	0.662	nt	0.2	i	-1.5
O=P(c1ccccc1)(c1ccccc1)C(O)c1cccs1 (stereo not drawn)	-0.6	nt	nt	-0.3%	nt	i	5.7
C[C@H](NC(=O)c1[nH]cnc1C(=O)Nc1ccon1)c1ccccc1	-23.5	1.8	nt	nt	nt	i	1.1
O=C(C1CSC2(c3ccc(F)cc3)CCC(=O)N12)N1CCCCCC1 (stereo not drawn)	nt	3.1	0.711	3.7%	2.7	nt	1.0
Cc1ccccc1NC(=O)COc1ccc2oc(=O)cc(C)c2c1	-2.4	-1.1	0.741	17.4%	3.5	i	0.9
O=C(Nc1cccc(O)c1)c1cccc(NC(=O)c2cccs2)c1	?	5.0	0.667	nt	-3.2	i	-6.7
CCOC(=O)c1ccc(Oc2nc(N(C)C)nc(N3CCOCC3)n2)cc1	2.0	0.6	0.698	-15.9%	5.4	i	-3.1
CCCc1[nH][nH]c(=O)c1C(c1ccc(Cl)cc1)C(C#N)C#N (stereo not drawn)	-4.5	0.1	0.719	1.6%	1.4	i	-0.7
COc1ccccc1-c1cc(C(=O)NCc2cccs2)no1	nt	4.3	0.658	-5.0%	10.8	nt	-1.1
COc1cc(C(=S)N2CCOCC2)cc(OC)c1OC(=O)c1ccc(C)cc1	10.2	3.2	0.636	nt	5.5	i	2.7
CCCOc1ccc(CNCCCOCC)cc1OC	-4.3	-1.4	0.697	-9.1%	-2.0	i	0.0
COc1ccc2c(c1)CC/C2=N\NC(=O)c1ccccc1	nt	nt	nt	-6.3%	-1.2	nt	-1.3
O=C1C(Cl)=C(NCCCO)C(=O)c2ccccc21	nt	18.7	0.678	21.4%	1.3	nt	-0.1
CN(CC(=O)N1CCCCCC1)S(=O)(=O)c1ccc(Br)s1	nt	2.1	0.777	9.1%	5.8	nt	nt
CCOC(=O)NCc1ccc(Cl)c(Cl)c1	nt	0.7	0.691	-0.4%	-0.3	nt	-0.9
CCn1c(=O)c2ccccc2n2c(SCC(=O)N3CCCc4ccccc43)nnc12	6.5	-95.8	0.727	-4.2%	nt	i	0.4
N#CCC(=O)Nc1ccc(C(=O)NCCc2c[nH]c3ccccc23)cc1	0.3	-2.8	0.669	nt	0.5	+	4.1
Cc1cn(S(=O)(=O)c2ccc(Cl)cc2)c(C)n1	-2.1	1.5	0.656	7.0%	-2.8	i	0.0
COc1ccc(-c2cc3c(=O)n(CC(=O)NCc4ccccc4F)ncn3n2)cc1	-0.5	3.4	0.704	nt	-5.6	i	1.7
COc1cc(/C=C(/C#N)c2nc3ccccc3[nH]2)ccc1OCC(=O)Nc1ccccc1C	1.8	-188.2	0.651	3.8%	nt	i	-9.3
CCc1nnc(SCC(=O)N2CCCc3ccccc32)nc1CC	nt	0.7	0.714	2.9%	1.5	nt	1.9
Cc1ccc(C(CC(=O)N2CCNCC2)c2ccccc2)c(O)c1C (stereo not drawn)	2.1	2.7	0.623	2.8%	3.3	i	2.3
COc1ccc(-c2cn3c(C)c(C(=O)NCCN4CCOCC4)sc3n2)cc1	nt	1.6	0.64	11.3%	?	nt	6.0
Cc1cc(C)c(C2C3=C(Nc4c2c(C)nn4-c2ccccn2)c2ccccc2C3=O)c(C)c1 (stereo not drawn)	nt	2.2	0.712	5.4%	4.8	nt	3.4
CN(CCc1ccccn1)C(=O)CCC1CCCN(C(=O)c2cscn2)C1 (stereo not drawn)	-0.8	2.6	0.722	1.9%	1.5	i	-1.9
COc1cc(NC(=S)NCc2cccs2)cc(OC)c1	nt	2.0	0.612	4.8%	5.4	nt	2.0
COc1cc(/C=N/NC(=O)C2CC(=O)N(c3ccc(C)cc3)C2)cc(OC)c1OC (stereo not drawn)	-7.4	nt	nt	4.6%	-5.7	i	2.1
COc1ccc(C(=O)NC2CCCCC2)cc1OC1CCN(C(C)C)CC1	-1.9	4.0	0.73	nt	0.2	i	2.8
Cc1cc(NC(=O)CCC(=O)N(CC(=O)NC2CCCC2)Cc2ccco2)no1	nt	1.8	0.727	-1.6%	8.7	nt	-0.1
CCN1CCc2c(OCC(=O)Nc3cccc(C)c3)cccc2C1=O	-13.8	2.0	0.732	-1.7%	-0.2	i	2.0
CSc1ccccc1NC(=O)CN(C)CC(=O)c1[nH]c(C)c(C(C)=O)c1C	0.2	4.1	0.687	5.6%	nt	i	2.9
O=C(Nc1ncccc1O)c1cccc(S(=O)(=O)N2CCN(c3ccc(F)cc3)CC2)c1	10.5	6.0	0.7	8.5%	nt	i	0.2
Cc1cccc(NC(=O)CSCC(=O)OCc2ccccn2)c1	-11.8	1.0	0.654	5.6%	0.8	i	2.7
COc1cc(OC)c2ccc(=O)oc2c1C(CCN1CCCCC1)c1ccc(N(C)C)cc1 (stereo not drawn)	nt	3.4	0.702	14.0%	-0.6	nt	0.2
O=C(/C=C/c1ccc(Cl)cc1Cl)OCC(=O)N1CCCC1	0.9	2.9	0.696	4.2%	nt	i	-4.7
Cc1ccc(S(=O)(=O)NC(Cc2ccc(Cl)cc2)C(=O)O)cc1 (stereo not drawn)	8.2	5.7	0.673	-4.7%	1.1	i	0.0
Cc1nnc(NC(=O)CSc2nnc(C)c(=O)n2N)s1	-1.5	3.3	0.707	nt	4.3	i	-4.2
CCS(=O)(=O)n1nc(-c2ccco2)nc1N	-2.9	2.6	0.749	?	-2.7	i	-1.6
Cc1c(C)c2ccc(OCC(=O)NCCN3CCOCC3)c(C)c2oc1=O	-0.5	-18.9	0.637	nt	3.4	i	-2.0
COc1ccc(C(=O)N2CCC(C(=O)Nc3cccc(C)c3)CC2)cc1OC	-6.5	-1.4	0.707	-3.6%	-0.9	nt	-0.8
Cc1ccc(C23CC4CC(CC(NC(=O)NN)(C4)C2)C3)cc1	2.4	2.5	0.727	1.8%	0.9	i	5.9
CCCCCc1nc2sc3c(c2c(=O)n1NC(=O)c1ccc([N+](=O)[O-])cc1)CC(C)(C)OC3	-4.9	1.8	0.719	6.5%	-2.5	i	0.2
CN1CCN(c2nc3ccccn3c(=O)c2/C=C(\C#N)S(=O)(=O)c2ccc(Cl)cc2)CC1	11.1	4.4	0.679	?	96.7*	i	3.1
CCSc1nnc(NC(=O)C(C)(C(F)(F)F)C(F)(F)F)s1	nt	2.0	0.673	-3.7%	1.1	nt	5.5
CCc1ccc(-n2nc3cc(C)c(N)cc3n2)cc1	-1.0	-376.6	0.669	nt	0.9	i	-0.3
O=C(CN1C2CCCC1CC(NC(=O)C1CCCCC1)C2)Nc1ccccc1 (stereo not drawn)	-3.2	3.2	0.71	nt	-2.3	i	-3.5
Cc1ccc(S(=O)(=O)N2[C@H](CC(=O)c3cccc4ccccc34)OC[C@@H]2C)cc1	-2.5	nt	nt	nt	nt	i	1.6
CC(=O)c1ccc(Nc2cc(C)nc3c(C)cc(C)cc23)cc1	0.0	-57.7	0.676	nt	-0.9	i	1.3
CCOC(=O)c1[nH]c2ccc(F)cc2c1NC(=O)CCN1CCOCC1	-1.1	-25.5	0.701	-5.0%	-11.2	i	2.8
Cc1cn([C@H]2C[C@H](O)[C@@H](/C=C/C(=O)NCCc3cccnc3)O2)c(=O)[nH]c1=O	1.2	nt	nt	nt	nt	i	3.1
Cc1cc(C)cc(NC(=O)NCC(O)COc2ccc([N+](=O)[O-])cc2)c1 (stereo not drawn)	-1.1	2.4	0.677	12.7%	1.3	i	0.7
CC(=O)c1ccccc1C(=O)NCc1cccnc1	nt	7.0	0.703	1.4%	6.3	nt	-5.5
O=S(=O)(c1cccc(-c2n[nH]c(=S)n2-c2cccc(C(F)(F)F)c2)c1)N1CCOCC1	-12.0	1.0	0.697	nt	nt	i	-2.6
CSc1cccc(NC(=O)CN(C)S(=O)(=O)c2cnc[nH]2)c1	-2.7	5.9	0.707	nt	1.6	i	1.6
N#C/C(=C\c1cccnc1)C(=O)Nc1cccc2ccccc12	3.0	3.1	0.734	nt	1.6	i	-0.8
CCn1c(=O)cc(OCC(=O)NCc2ccco2)c2ccccc21	nt	3.4	0.68	2.4%	2.5	nt	-4.0
CC1(C)Cc2c(c(-c3ccco3)[nH]c(=O)c2C#N)CO1	nt	-7.6	0.726	?	-1.3	nt	-5.9
Cc1c(Cl)cccc1NC(=S)/C(=C(\[O-])c1ccc(Cl)s1)[n+]1ccccc1	nt	9.5	0.689	?	-2.8	nt	11.1
CCOC(=O)c1c(N2C(=O)C3CC(C)=C(C)CC3C2=O)sc(C)c1C (stereo not drawn)	nt	43.1*	0.671	-2.2%	8.1	nt	3.3

Further structures follow:
SMILES	AF4-AF9 inh	UCH37 inh	Ecoli growth	Vif TR-FRET	RanGTP-Impb inh	FGF22 binding	HNF4A DNA FP
CCn1c(-c2cccnc2Cl)nc2cc(C)c(C)cc21	nt	-2.9	0.704	-6.0%	3.1	nt	-3.8
CS(=O)(=O)N1CCN(c2ccc([N+](=O)[O-])c3cccnc23)CC1	-6.7	5.0	0.733	2.7%	2.4	i	1.4
CC(C)CCNC(=O)C1CC2Cn3c(nc4cc(Cl)c(Cl)cc43)C2N1C (stereo not drawn)	0.2	1.7	0.706	nt	-1.0	i	0.5
C[C@@H]1CN([C@H](C)CO)C(=O)c2cc(NC(=O)C3CCCCC3)ccc2O[C@@H]1CN(C)Cc1ccncc1	-1.4&-5.2	1.4	0.768	nt	nt	i	2.1
O=C(Nc1ccc(N2CCOCC2)cc1)c1cc2ccccc2o1	nt	-3.9	0.679	6.5%	-0.1	nt	-4.8
COc1ccc(NC(=O)NC23CC4(C)CC(C)(CC(C)(C4)C2)C3)cc1	nt	0.3	0.737	nt	-2.2	nt	-1.5
CCc1nnc(NC(=O)CSc2nnc(C3CCCCC3)n2-c2ccccc2)s1	nt	4.0	0.726	-3.8%	-2.1	nt	4.0
CC(C)(C)c1ccc(N2C(=N)SCC2=O)cc1	-2.0	5.9	0.693	2.5%	4.3	i	1.9
Cn1c(CNC(=O)CNC(=O)Cc2ccc(F)cc2)cc(=O)n(C)c1=O	-2.1	-1.1	0.732	-1.2%	-1.4	i	3.8
Cc1cccc(C(=O)NC2CCN(S(=O)(=O)c3cccc(F)c3)CC2)c1	-2.9	6.0	0.719	nt	nt	i	1.0
COc1ccc2c(c1O)-c1ccccc1CCN(C)C2	-0.7	-0.4	0.795	nt	1.8	i	1.6
CC(C)C[C@H]1CN=C(Nc2ccccc2)N1CC(C)C	-1.4	0.4	0.689	nt	nt	i	3.4
Cc1ccc(NC(=O)[C@H](Cc2ccccc2)NC(=O)C2CCNCC2)cc1	-4.0	-1.4	0.706	-2.2%	9.6	i	3.9
COc1cc2[nH]c(=O)n(Cc3ccc(C(=O)NCCCN4CCC(C)CC4)cc3)c(=O)c2cc1OC	nt	-6.6	0.682	0.8%	2.7	nt	1.7
O=C(c1c[nH]c2ccc(F)cc2c1=O)N1CCCCCC1	4.6	1.7	0.674	6.5%	5.8	i	2.2
CC(/C=N/NC(=O)c1cc(-c2ccc(Cl)cc2)nc2ccccc12)=C\c1ccco1	nt	nt	nt	17.9%	4.0	nt	3.8
CCOc1ccc(C(C)NC(=S)NC2CCCCC2)cc1 (stereo not drawn)	-3.1	1.2	0.65	-5.8%	-2.0	i	-3.7

A different layout for part of the listing above:
mol,AF4-AF9 inh,UCH37 inh,Ecoli growth,Vif TR-FRET,RanGTP-Impb inh,FGF22 binding,HNF4A DNA FP
COc1ccc(NC(=O)NC23CC4(C)CC(C)(CC(C)(C4)C2)C3)cc1,nt,0.3,0.737,nt,-2.2,nt,-1.5
CCc1nnc(NC(=O)CSc2nnc(C3CCCCC3)n2-c2ccccc2)s1,nt,4.0,0.726,-3.8%,-2.1,nt,4.0
